Source: PubChem (National Center for Advancing Translational Sciences (NCATS))
Cruzain inh noDet – qHTS Assay for Promiscuous and Specific Inhibitors of Cruzain (without detergent); purified cruzain, Z-FR-AMC fluorescence, no detergent; Potency, µM, inactives show max response, negative = inhibition, actives largely listed as inhibitors; AID 1476, 2009; 200,000 compounds, 2.3% hits; Cruzipain (Trypanosoma cruzi), P25779;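 further: plate controls were enzyme without inhibitor for no effect and buffer without enzyme for full effect; nearly all actives have a fitted effect of over 40% in size; top concentration of the series not given in the record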
Target sequence (P25779 123-467 limits assumed): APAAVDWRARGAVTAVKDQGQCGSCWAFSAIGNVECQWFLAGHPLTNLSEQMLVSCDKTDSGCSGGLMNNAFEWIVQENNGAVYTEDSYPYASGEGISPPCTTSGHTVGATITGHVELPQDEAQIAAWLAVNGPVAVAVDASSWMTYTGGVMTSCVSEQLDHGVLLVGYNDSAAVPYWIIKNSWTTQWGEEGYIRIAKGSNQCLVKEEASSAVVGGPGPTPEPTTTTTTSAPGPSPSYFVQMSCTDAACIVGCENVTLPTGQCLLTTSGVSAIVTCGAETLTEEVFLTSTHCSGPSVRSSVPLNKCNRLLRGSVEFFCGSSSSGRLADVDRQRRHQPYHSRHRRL
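Purified cruzain at 1.5 nM, pre-incubated 15 min with compound at room temperature in 100 mM sodium acetate pH 5.5, 5 mM DTT, 0.00005% Triton X-100. Reaction started with 2 uM Z-FR-AMC; AMC fluorescence increase over 60 s gives rate.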
MARV entry inh – qHTS for inhibitors of binding or entry into cells for Marburg Virus; Marburg virus pseudotyped entry inhibition, cell reporter; control for the full effect not named in the record; about a third of the inactives were read at about 46 µM; Potency, µM (highest dose often 37.8 µM), inactives show at the highest dose activity change, negative = inhibition, most hits filed as inhibitors; 300,000 compounds, 1.8% hits; AID 540276, 2011; active = well fitted inhibition curve with a large enough effect; inconclusive = small, poorly fitted or top-dose-only effect, or effect the other way; inactive = flat fitted curve, though single readings scatter; tested in HEK293 cells; about a fifth of its hits are not listed in these tables; further: on the % scale 0 is the no-effect control and ±100 the full control effect; luciferase read-out
SARS PLpro yeast – qHTS of Yeast-based Assay for SARS-CoV PLP; 330,000 compounds, 0.19% hits; S. cerevisiae expressing SARS-CoV PLpro, growth rescue; control for the full effect not named in the record; Potency, µM (titrated, usually from 32.9 µM), for the others: at the top dose activity, positive = growth rescue; active means well fitted rising curve with a large enough effect; inconclusive means small, poorly fitted or top-dose-only effect; inactive means no such curve, though single readings can be large or run the other way; further: 0% is about no effect; nearly all actives have a fitted effect of over 55% in size; growth read by luminescence after 48 h
RE007 growth inh – qHTS Assay for Inhibitors of the HIV-1 protein Vpr. S. pombe RE007 Vpr strain, BacTiter-Glo ATP luminescence, 24 h; control for the full effect not named in the record. Potency, µM (top dose mostly 92.2 µM), inactives show top-dose activity change, negative = less growth. 360,000 compounds, 0.21% hits; active = well fitted falling curve with a large enough effect; inconclusive = small, poorly fitted or top-dose-only effect; inactive = no such curve, though single readings can be large or run the other way;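 further: on the % scale 0 is the no-effect control and ±100 the full control effect; nearly all actives have a fitted effect of over 50% in size; the assay follows cell death caused by Vpr and the record does not say whether a fall means rescue or toxicity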
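Fission yeast RE007 carrying one integrated HIV-1 vpr copy, seeded at OD 0.01 in PMG+AL medium with 23 nL pinned compound. Grown 24 h at 30 degrees; viability read by BacTiter-Glo luminescence after 5 min.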
2A StopGo – High Throughput Screening for Foot and Mouth Disease Virus Antivirals | human cells with a luciferase reporter of 2A StopGo recoding; control for the full effect not named in the record | Potency, µM (titrated, usually from 57.9 µM), for inactives: top-dose signal change, negative = less light | 410,000 compounds, 1.2% hits | AID 1159524, 2015; active = well fitted falling curve with a large enough effect; inconclusive = small, poorly fitted or top-dose-only effect; inactive = no such curve, though single readings can be large or run the other way; tested in HEK293T cells; further: on the % scale 0 is the no-effect control and ±100 the full control effect; nearly all actives have a fitted effect of over 45% in size; luciferase light after 4 h
Cruzain Triton – qHTS Assay for Promiscuous and Specific Inhibitors of Cruzain (with detergent); Potency, µM, inactives show max response, negative = inhibition, most hits filed as inhibitors; AID 1478, 2009; 200,000 compounds, 0.43% hits; Cruzipain (Trypanosoma cruzi), P25779; purified cruzain, Z-FR-AMC fluorescence, 0.01% Triton;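 further: plate controls were neutral wells for no effect and buffer without enzyme for full effect; nearly all actives have a fitted effect of over 40% in size; top concentration of the series not given in the record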
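Z-FR-AMC hydrolysis (2 uM substrate) by cruzain (1.5 nM) monitored kinetically at ex 360/em 450 nm after 15 min room-temperature compound exposure; 0.01% Triton X-100, pH 5.5, 5 mM DTT.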
NS1 function inh – qHTS Assay for Inhibitors of Influenza NS1 Protein Function. S. cerevisiae slowed by influenza A NS1, growth recovery by OD600. Potency, µM (top dose mostly 46.1 µM), for the others: at the highest dose activity, positive = more growth. 270,000 compounds, 0.4% hits; active means well fitted rising curve with a large enough effect; inconclusive means small, poorly fitted or top-dose-only effect; inactive means no such curve, though single readings can be large or run the other way; further: nearly all actives have a fitted effect of over 50% in size
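Compounds were scored for reversing the slow growth caused by influenza A NS1 in S. cerevisiae, measured by optical density at 600 nm. Assay medium contained 2% galactose at pH 6.0; NS1-free yeast of the same strain were the positive control.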
LASV entry inh – qHTS for Inhibitors of binding or entry into cells for Lassa Virus; Lassa virus pseudotype entry inhibition, cell reporter; control for the full effect not named in the record; Potency, µM (series often up to 37.9 µM), inactives show at the top dose activity change, negative = inhibition, usual class: inhibitors; 300,000 compounds, 1.2% hits; AID 540256, 2011; active means well fitted inhibition curve with a large enough effect; inconclusive means small, poorly fitted or top-dose-only effect, or effect the other way; inactive means flat fitted curve, though single readings scatter; tested in HEK293 cells; further: on the % scale 0 is the no-effect control and ±100 the full control effect; nearly all actives have a fitted effect of over 50% in size; luciferase read-out
Active calls of the source: *; u = inconclusive; x = no result given; & = joins results of further samples; [ ] = remark or other dose. Unless noted, the call rests on the fitted dose curve; in most records, active means well fitted curve in the direction sought with a large enough effect; inconclusive means small, poorly fitted or top-dose-only effect, or another doubt; inactive means no such curve, though single readings can be large; an effect the other way counts as inactive or inconclusive. Potency means the concentration at half of the fitted maximal effect.

smiles,Cruzain inh noDet,MARV entry inh,SARS PLpro yeast,RE007 growth inh,2A StopGo,Cruzain Triton,NS1 function inh,LASV entry inh
COc1ccc2c(C)cc(C)nc2n1,2%,x,0%,2%,-3%,3.2%,-1%&5%,x
CCOc1ccccc1OCC(=O)Nc1ccc(N2CCOCC2)cc1N1CCOCC1,x,-21%,-2%,-6%,-14%,x,x,0%
Cc1ccc(NC2c3ncccc3C(=O)N2C2CCCCC2)cc1 (stereo not drawn),12%,-5%,-12%,2%,-14%,-7.5%,-3%,u
COC(=O)c1c[nH]n2c(=O)cc(CCl)nc12,-1%,8%,-1%,15%,x,-4.1%,0%,-17%
CC1(C)C(c2ccccc2)=NC(c2cccnc2)N1O (stereo not drawn),-2%,u,7%,-7%,-19%,0.7%,2%,4%
CC1(C)CC(=O)C2=C(C1)OC(/N=C/N1CCOCC1)=C(C#N)C2c1ccccc1 (stereo not drawn),25%,6%,7%,3%,-6%,-0.3%,-13%,-15%
Cc1ccc(-c2c3c(=O)n(C)c(=O)n(C)c3cn2-c2ccccc2O)cc1,13%,-12%,-21%,-9%,15%,0.5%,-140%,u
COc1ccc2ccccc2c1/C=N/NC(=O)c1cc(C)[nH]n1,x,x,-3%,13%,-4%,x,-17%,x
O=C(CCC1N=C2c3ccccc3N=C(SCc3ccc(Cl)cc3)N2C1=O)NCc1cccs1 (stereo not drawn),13%,x,x,x,0%,-3.6%,x,u
CCN(CC(=O)NCc1ccc(Cl)cc1)C(=O)COc1ccc(C)cc1C,x,u,-3%,3%,2%,x,-34%,-19%

The last three compounds of the part before lead into the next:
smiles,Cruzain inh noDet,MARV entry inh,SARS PLpro yeast,RE007 growth inh,2A StopGo,Cruzain Triton,NS1 function inh,LASV entry inh
COc1ccc2ccccc2c1/C=N/NC(=O)c1cc(C)[nH]n1,x,x,-3%,13%,-4%,x,-17%,x
O=C(CCC1N=C2c3ccccc3N=C(SCc3ccc(Cl)cc3)N2C1=O)NCc1cccs1 (stereo not drawn),13%,x,x,x,0%,-3.6%,x,u
CCN(CC(=O)NCc1ccc(Cl)cc1)C(=O)COc1ccc(C)cc1C,x,u,-3%,3%,2%,x,-34%,-19%
CNc1c(NC(=O)c2ccc3c(c2)OCO3)c(=O)oc2ccccc12,x,5%[46.1 µM],2%,9%,-15%,x,-4%,5%[46.1 µM]
O=S(=O)(Nc1ccc(N2CCOCC2)cc1)c1ccc(F)cc1F,x,-23%[46.1 µM],-2%,2%,-2%,x,17%,9%
CCc1nc(=O)c(-c2ccccc2)c(C)n1-c1ccccc1,x,6%[46.1 µM],1%,-9%,0%,x,-1%,16%[46.1 µM]
CCOC(=O)Cc1csc(NC(NC(=O)OCC)(C(F)(F)F)C(F)(F)F)n1,1%,-6%,0%,8%,4%,1.0%,u,16%
COC(=O)c1cccc(OC(N)=O)c1,-6%,-2%,5%,3%,20%,-8.5%,-11%,13%
NC(=O)CSc1nc2c(oc3ccccc32)c(=O)n1-c1ccccc1F,-13%,18%[46.1 µM],x,x,-22%,-3.3%,x,x
COc1ccc(C)cc1S(=O)(=O)N(CC(=O)Nc1cc([N+](=O)[O-])ccc1C)c1ccc(C)c(C)c1,u,u,9%,6%,-4%,-0.6%,7%,-10%
COc1ccc(-c2nc(SCc3cc(=O)c4cc(C)ccc4[nH]3)n[nH]2)cc1,-12%,x,x,x,u,-3.6%,x,-4%[46.1 µM]
Cc1ccc2cc(C(c3nnnn3C(C)(C)C)N3CCCC3)c(=O)[nH]c2c1C (stereo not drawn),-1%,2%,2%,x,x,-1.9%,1%,x
CC(=O)Nc1cc(C(=O)c2ccccc2)ccc1N1CCOCC1,-5%,-23%,4%,8%,-22%,0.9%,1%,2%
COc1ccc(Nc2cc(Cl)nc(N)n2)cc1OC,x,3%[46.1 µM],-3%,-12%,0%,x,x,-2%[46.1 µM]
O=C(O)c1ccc([N+](=O)[O-])c2c1C(=O)c1ccccc1C2=O,x,-19%[46.1 µM],x,-2%,11%,x,x,2%
Cc1ccc(S(=O)(=O)N(C)/N=C/c2ccc(N(C)C)cc2)cc1,x,4%[46.1 µM],2%,-3%,8%,x,-11%,1%
c1ccc2cc(N3CCCCC3)ccc2c1,x,-9%[46.1 µM],x,-21%,33%[activator],x,x,1%[46.1 µM]
O=C(N/N=C/c1cccn1-c1cccc(C(=O)O)c1)Nc1ccccc1,0%,12%,9%,3%,-7%,-5.5%,20%,2%
CC(=O)c1sc2nc(-c3ccccc3)cc(C)c2c1N,x,-10%[46.1 µM],0%,7%,-15%,x,1%,-7%[46.1 µM]
COc1ccc(N2C(=O)CSC23C(=O)N2CCCc4cccc3c42)cc1 (stereo not drawn),1%,-22%,-2%,15%,-24%,0.9%,-26%,u
CCOc1cc2[nH]c(=O)n(Cc3ccccc3)c(=O)c2cc1OCC,4%,-21%,2%,-1%[3.69 µM],7%,-1.1%,13%,-17%
CN1CCN(Cc2c(O)ccc3c2oc(=O)c2ccccc23)CC1,-19%,-22%,1%,-16%,2%,-8.3%,3%,18%
O=C(CCCn1c(=S)[nH]c2ccsc2c1=O)NC1CCCCC1,x,x,0%,17%,3%,x,5%,x
CN1CCN(C(=O)c2ccc(CN(c3ccccc3)S(=O)(=O)c3ccccc3)cc2)CC1,x,u,0%,-5%,34%,x,3%,u
Cc1ccccc1C(=O)c1cccn1CC(=O)NCc1ccco1,-12%,17%,0%,19%,-7%,2.1%,-4%,-14%
O=C(O)[C@H]1CC=C[C@H]2CCN(Cc3ccc(Cl)c(Cl)c3)C(=O)[C@@H]12,2%,x,u,-2%,-5%,0.3%,x,x
CSc1cccc(NC(=O)CCNS(=O)(=O)c2ccc3[nH]c(=O)oc3c2)c1,x,8%[46.1 µM],1%,4%,-4%,x,-11%,14%[46.1 µM]
COc1ccc(S(=O)(=O)n2nc(OC(=O)c3cccs3)cc2NC(=O)c2cccs2)cc1,x,x,-1%,6%,-8%,x,-2%,x
O=C(NCC(=O)N(c1ccccc1)C(C(=O)NC1CCCC1)c1ccncc1)c1ccco1 (stereo not drawn),x,-6%,x,-9%,0%,x,x,-1%
CC1CC(C)(C)NC(=S)S1 (stereo not drawn),-6%,-4%[46.1 µM],6%,7%,-4%,0.1%,2%,-3%
CCOC(=O)C1=C(c2ccccc2)c2ccccc2OC1C(=O)OCC (stereo not drawn),4%,x,-10%,0%,0%,-3.0%,x,x
Cc1ccc(S(=O)(=O)ON=C2CCN(S(=O)(=O)c3ccccc3)CC2)cc1,-7%,-2%,-13%,8%,18%,8.8%,4%,-1%
COC(=S)Nc1cccc(C(F)(F)F)c1,x,3%[46.1 µM],-1%,-15%,-11%,x,5%,-1%
CC(=O)N1CCN(S(=O)(=O)c2cccc(C(=O)Nc3ccc(F)c(F)c3)c2)CC1,x,-8%[46.1 µM],0%,4%,-8%,x,-42%,u
O=C(c1ccco1)N1CCCC(c2nc3c(nnn3Cc3cccc(Cl)c3)c(=O)[nH]2)C1 (stereo not drawn),x,u,7%,43%,0%,x,8%,-29%[46.1 µM]
CCOc1ccccc1N1CC(C(=O)Nc2cc(Cl)ccc2-n2cncn2)CC1=O (stereo not drawn),x,11%,4%,0%,-5%,x,x,-2%[46.1 µM]
Cc1ccc2c(c1)CC(C)N2S(=O)(=O)c1nnc(NC(=O)CC(C)C)s1 (stereo not drawn),-3%,x,-1%,0%,5%&-1%,-1.7%,-6%,-11%[46.1 µM]
Cc1cccc(C(=O)NCC(=O)NC2CCC(C)CC2)c1 (stereo not drawn),x,-2%,-2%,-13%,76%[activator],x,x,u
COc1ccc(CCNC(=O)C2CCCN(c3ncccn3)C2)cc1 (stereo not drawn),x,4%[46.1 µM],0%,2%,31%[activator],x,x,5%[46.1 µM]
O=C(O)/C=C\C(=O)NCc1ccccc1,-8%,-7%,-8%,6%,-2%,6.6%,14%,-6%
O=C1C2CC(O)CN2C(=O)N1c1ccccc1 (stereo not drawn),x,-6%[46.1 µM],0%,-9%,-2%,x,1%,-1%

Quoted at random: four compounds from above, in no set order.
smiles,Cruzain inh noDet,MARV entry inh,SARS PLpro yeast,RE007 growth inh,2A StopGo,Cruzain Triton,NS1 function inh,LASV entry inh
CCOc1ccccc1N1CC(C(=O)Nc2cc(Cl)ccc2-n2cncn2)CC1=O (stereo not drawn),x,11%,4%,0%,-5%,x,x,-2%[46.1 µM]
O=C1C2CC(O)CN2C(=O)N1c1ccccc1 (stereo not drawn),x,-6%[46.1 µM],0%,-9%,-2%,x,1%,-1%
O=C(c1ccco1)N1CCCC(c2nc3c(nnn3Cc3cccc(Cl)c3)c(=O)[nH]2)C1 (stereo not drawn),x,u,7%,43%,0%,x,8%,-29%[46.1 µM]
CC(=O)N1CCN(S(=O)(=O)c2cccc(C(=O)Nc3ccc(F)c(F)c3)c2)CC1,x,-8%[46.1 µM],0%,4%,-8%,x,-42%,u
